TrxR1 inh – inhibitors of rat thioredoxin reductase 1 | recombinant rTrxR1, NADPH fluorescence consumption, selenite substrate | O89049 | actives 1% (n = 390,000) | AID 588453 | Potency, µM (series often up to 114 µM), without a hit: at the highest dose activity change, negative = inhibition, most hits filed as inhibitors; further: potency means the concentration at half of the fitted maximal effect; on the % scale 0 is the no-effect control and ±100 the full control effect; nearly all actives have a fitted effect of over 65% in size
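Rat TrxR1 (90 nM in the dispensed reagent) was pre-reduced with 400 uM NADPH for 5 min at room temperature, then incubated with compound for 15 min. After 400 uM selenite was added, NADPH fluorescence (Ex 340/Em 450 nm) was followed for 8 min.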
TrxR1 substrate – is turned over as a substrate by rat TrxR1 | O89049 | purified TrxR1 substrate turnover, NADPH consumption readout | Potency, µM (titrated, usually from 114 µM), inactives show at the top dose activity change, negative = substrate turnover | actives 0.01% (n = 390,000); further: potency means the concentration at half of the fitted maximal effect; on the % scale 0 is the no-effect control and ±100 the full control effect; nearly all actives have a fitted effect of over 50% in size
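Rat TrxR1, dispensed at 90 nM, was prereduced with 400 uM NADPH (final) for 5 min at ~22 deg C, then incubated with compound 15 min before 400 uM selenite. A first-read NADPH fluorescence drop versus no-compound background flagged substrates.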
Vif-A3F inh – blocks the Vif interaction with APOBEC3F; HeLa A3F-eYFP + Vif (tagged APOBEC3F with the HIV-1 protein that degrades it), YFP fluorescence increase; Potency, µM (series often up to 46.1 µM), without a hit: top-dose activity, negative = active; actives 0.2% (n = 390,000); AID 602313; further: potency means the concentration at half of the fitted maximal effect; % of control where 0% means no effect; nearly all actives have a fitted effect of over 65% in size
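HeLa cells stably expressing A3F-eYFP plus Vif, plated and incubated overnight at 37 deg C, then exposed to compounds overnight at 37 deg C. Blocked degradation read as raised yellow fluorescence (Ex 488/Em 500-530).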
mIDH1 inhibitor – inhibitors of human mutant IDH1 R132H | IDH1-R132H enzyme, NADPH consumption, diaphorase/resazurin fluorescence | actives 0.093% (n = 390,000) | O75874 | Potency, µM (top dose mostly 76.6 µM), inactives show top-dose activity change, negative = inhibition, hits mostly inhibitors; further: potency means the concentration at half of the fitted maximal effect; on the % scale 0 is the no-effect control and ±100 the full control effect; nearly all actives have a fitted effect of over 65% in size
Target sequence (O75874 whole entry R132H, stated change not applied): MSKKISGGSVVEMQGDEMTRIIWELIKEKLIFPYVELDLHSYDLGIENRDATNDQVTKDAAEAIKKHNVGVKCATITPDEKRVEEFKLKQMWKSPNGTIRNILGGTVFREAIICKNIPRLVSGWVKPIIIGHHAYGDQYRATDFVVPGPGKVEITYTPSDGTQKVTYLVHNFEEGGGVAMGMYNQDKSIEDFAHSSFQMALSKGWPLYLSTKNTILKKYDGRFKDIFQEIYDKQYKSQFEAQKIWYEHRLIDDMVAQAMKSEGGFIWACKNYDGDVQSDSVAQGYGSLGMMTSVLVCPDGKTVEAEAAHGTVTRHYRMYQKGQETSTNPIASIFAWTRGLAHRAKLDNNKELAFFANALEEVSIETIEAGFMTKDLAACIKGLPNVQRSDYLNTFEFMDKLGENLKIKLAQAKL
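IDH1-R132H (0.5 ug/mL) preincubated 30 min with compound, then NADPH (0.016 mM) and alpha-KG (2 mM) added; 80 min at RT, pH 7.5. Remaining NADPH coupled via diaphorase/resazurin to fluorescence (540/590 nm); concentration-response curves normalized to no-enzyme control.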
LDHA inh – LDHA (human) enzyme inhibition; purified LDHA, NADH/diaphorase-resazurin fluorescence; hits give low values; activity change, % (values are at about 110 or 230 µM); AID 1347041; actives 0.15% (n = 480,000); P00338; in the data active means activity change below about -30%; inconclusive means mostly about -25% to -30%;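 further: plate controls were DMSO wells for no effect and wells without enzyme for full effect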
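Remaining NADH was detected by diaphorase (0.133 mg/mL) converting 37 µM resazurin to fluorescent resorufin, read at 0 and 20 minutes. The preceding 5-minute room-temperature reaction used 2 nM LDHA, 0.2 mM sodium pyruvate and 0.06 mM NADH at pH 7.4.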
USP1-UAF1 inh – blocks the human USP1/UAF1 deubiquitinase complex; O94782; recombinant USP1/UAF1, Ub-Rhodamine cleavage fluorescence; Potency, µM (series often up to 57.1 µM), for the others: top-dose activity change, negative = inhibition, hits mostly inhibitors; actives 0.23% (n = 390,000); further: potency means the concentration at half of the fitted maximal effect; on the % scale 0 is the no-effect control and ±100 the full control effect; nearly all actives have a fitted effect of over 60% in size; inactives centre near -12
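Step one: compound is pinned into 1nM USP1/UAF1 in HEPES pH 7.8 buffer with TCEP. Step two: 15 min room-temperature incubation. Step three: Ub-Rho (150nM final) starts cleavage, tracked by fluorescence over six one-minute reads.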
Glioma ERSR ind – ER stress response induction in glioma | U87-MG GRP78 promoter luciferase reporter, 16 h | Potency, µM, without a hit: top-dose activation, usual class: activators | actives 0.02% (n = 420,000); further: potency means the concentration at half of the fitted maximal effect; series mostly up to about 76 µM; % of control where 0% means no effect; nearly all actives have a fitted effect of over 35% in size
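ERSR induction read as luciferase luminescence (Bright-Glo, 10 min at room temperature) in stably transfected human U87-MG glioma cells exposed to compounds for 16 h, using GRP78 as sensor.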
Numbers without * were called inactive; ? = inconclusive; . = no result given; & = joins results of further samples; ! = not active in a repeat; [ ] = another dose, or the depositor's remark. Unless noted, the call rests on the fitted dose curve; in most records, active means well fitted curve in the direction sought with a large enough effect; inconclusive means small, poorly fitted or top-dose-only effect, or another doubt; inactive means no such curve, though single readings can be large; an effect the other way counts as inactive or inconclusive. Some of the compounds tested (hit frequency here may not be typical).

#1 C[C@@]12C=CC(=O)C=C1CC[C@@H]1[C@@H]2[C@H](O)C[C@]2(C)[C@@H]1CC[C@]2(O)C(=O)CO
#2 COc1ccc2cc(C(C)C(=O)O)ccc2c1 (stereo not drawn)
#3 CCCNCC(O)COc1ccccc1C(=O)CCc1ccccc1 (stereo not drawn)
#4 COC1/C=C/OC2(C)Oc3c(C)c(O)c4c(O)c(c(/C=N/N5CCN(C)CC5)c(O)c4c3C2=O)NC(=O)/C(C)=C/C=C/C(C)C(O)C(C)C(O)C(C)C(OC(C)=O)C1C (stereo not drawn)
#5 COc1cccc(Nc2nc(NCC3CCCO3)c3ccccc3n2)c1 (stereo not drawn)
#6 CC1CC2C3CCC4=CC(=O)C=CC4(C)C3(F)C(O)CC2(C)C1(O)C(=O)CO (stereo not drawn)
#7 CC[C@@H]1CN2CCc3cc(OC)c(OC)cc3[C@H]2C[C@@H]1C[C@H]1NCCc2cc(OC)c(OC)cc21
#8 CC(O)C(N)C(=O)O (stereo not drawn)
Compound | 1 | 2 | 3 | 4 | 5 | 6 | 7 | 8
TrxR1 inh | . | -12% | 25%[57.1 µM] | . | -2% | 6% | . | .
TrxR1 substrate | . | -9% | 13%[57.1 µM] | . | -3% | 2% | . | .
Vif-A3F inh | . | 6% | 7% | . | -5% | 3% | . | .
mIDH1 inhibitor | . | -4% | 8% | . | -2% | -1% | . | .
LDHA inh | . | -4 | -4 | . | 0 | -2 | . | .
USP1-UAF1 inh | . | -16% | -13% | . | -8% | -9% | . | .
Glioma ERSR ind | -2% | -1%&-1%&-5% | -5%&-2%&-6%&-4%&-3% | -3% | -7% | -1% | -6% | -4%

#9 C[C@]12C=CC(=O)C=C1CC[C@@H]1[C@@H]2[C@@H](O)C[C@@]2(C)[C@H]1CC[C@]2(O)C(=O)CO
#10 CCNCCCNCCCNCCCNCC
#11 COCCCC/C(=N\OCCN)c1ccc(C(F)(F)F)cc1
#12 CN(C)CCN(Cc1cccs1)c1ccccn1
#13 CO[C@@H]1C=CO[C@]2(C)Oc3c(C)c(O)c4c(O)c(c(C=NN5CCN(C)CC5)c(O)c4c3C2=O)NC(=O)C(C)=CC=C[C@H](C)[C@H](O)[C@H](C)[C@H](O)[C@H](C)[C@H](OC(C)=O)[C@H]1C
#14 N#C/C(=C\c1ccc([N+](=O)[O-])o1)c1nc2ccccc2[nH]1
#15 C[C@]12C[C@H](O)[C@H]3[C@@H](CCC4=CC(=O)CC[C@@]43C)[C@@H]1CC[C@@H]2C(=O)CO
#16 C[C@@](N)(Cc1ccc(O)c(O)c1)C(=O)O
Compound | 9 | 10 | 11 | 12 | 13 | 14 | 15 | 16
TrxR1 inh | 9% | . | 13% | -7%[57.1 µM] | . | 2.8µM* | 25%[57.1 µM] | .
TrxR1 substrate | 6% | . | 2% | 3%[57.1 µM] | . | 4% | 12%[57.1 µM] | .
Vif-A3F inh | -5% | . | 0%&1%&0%&2%&5% | 8% | . | ? | -3% | .
mIDH1 inhibitor | 12% | . | 11%&-7%&2%&-2%&10% | 34% | . | 12% | 15% | .
LDHA inh | -3 | . | -1&-4&-5&-9&-3 | -6 | . | 0 | -4 | .
USP1-UAF1 inh | -26% | . | ? | -1% | . | -21% | -21% | .
Glioma ERSR ind | -2% | -3% | -3%&-3%&-3%&2%&-3%&1% | 1%&0%&-5%&-4% | -3% | -12% | -4%&-1%&-1% | -5%&-2%

#17 N[C@H](C(=O)N[C@@H]1C(=O)N2C(C(=O)O)=C(Cl)CS[C@@H]12)c1ccccc1
#18 C[C@]12C[C@H](O)C3[C@@H](CCC4=CC(=O)CC[C@@]43C)[C@@H]1CC[C@@H]2C(=O)CO (stereo partly drawn)
#19 COc1ccc(CC(N)C(=O)NC2C(CO)OC(n3cnc4c(N(C)C)ncnc43)C2O)cc1 (stereo not drawn)
#20 COC(=O)[C@@H]1[C@H]2C[C@H]3c4[nH]c5ccccc5c4CCN3C[C@H]2CC[C@@H]1O
#21 CCN1C(=O)C=CC1=O
#22 Cc1c(C(=O)NN2CCCCC2)nn(-c2ccc(Cl)cc2Cl)c1-c1ccc(I)cc1
#23 CCS(=O)(=O)N(C)[C@@H]1c2cc(C#N)ccc2OC(C)(C)[C@H]1O
#24 COc1cccc2c1C(=O)c1c(O)c3c(c(O)c1C2=O)C[C@](O)(C(C)=O)C[C@H]3O[C@@H]1C[C@H](N)[C@H](O)[C@H](C)O1
Compound | 17 | 18 | 19 | 20 | 21 | 22 | 23 | 24
TrxR1 inh | . | 0% | . | . | 11µM*! | . | . | .
TrxR1 substrate | . | . | . | . | -3%[57.1 µM] | . | . | .
Vif-A3F inh | . | . | . | . | . | . | . | .
mIDH1 inhibitor | . | . | . | . | . | . | . | .
LDHA inh | . | . | . | . | . | . | . | .
USP1-UAF1 inh | . | . | . | . | . | . | . | .
Glioma ERSR ind | -3%&-4% | . | -6% | -3%&-5% | -1% | -3%&1% | -4%&-1% | -4%

Four entries from above, in markdown:
| No. | Compound | TrxR1 inh | TrxR1 substrate | Vif-A3F inh | mIDH1 inhibitor | LDHA inh | USP1-UAF1 inh | Glioma ERSR ind |
| --- | --- | --- | --- | --- | --- | --- | --- | --- |
| 21 | CCN1C(=O)C=CC1=O | 11µM*! | -3%[57.1 µM] | . | . | . | . | -1% |
| 22 | Cc1c(C(=O)NN2CCCCC2)nn(-c2ccc(Cl)cc2Cl)c1-c1ccc(I)cc1 | . | . | . | . | . | . | -3%&1% |
| 23 | CCS(=O)(=O)N(C)[C@@H]1c2cc(C#N)ccc2OC(C)(C)[C@H]1O | . | . | . | . | . | . | -4%&-1% |
| 24 | COc1cccc2c1C(=O)c1c(O)c3c(c(O)c1C2=O)C[C@](O)(C(C)=O)C[C@H]3O[C@@H]1C[C@H](N)[C@H](O)[C@H](C)O1 | . | . | . | . | . | . | -4% |

One compound at a time (already shown). Screens in order: TrxR1 inh, TrxR1 substrate, Vif-A3F inh, mIDH1 inhibitor, LDHA inh, USP1-UAF1 inh, Glioma ERSR ind
COc1ccc2cc(C(C)C(=O)O)ccc2c1 (stereo not drawn) is listed as -12%, -9%, 6%, -4%, -4, -16%, -1%&-1%&-5%
CCCNCC(O)COc1ccccc1C(=O)CCc1ccccc1 (stereo not drawn) is listed as 25%[57.1 µM], 13%[57.1 µM], 7%, 8%, -4, -13%, -5%&-2%&-6%&-4%&-3%
N#C/C(=C\c1ccc([N+](=O)[O-])o1)c1nc2ccccc2[nH]1 is listed as 2.8µM*, 4%, ?, 12%, 0, -21%, -12%
C[C@@](N)(Cc1ccc(O)c(O)c1)C(=O)O is listed as ., ., ., ., ., ., -5%&-2%
COC(=O)[C@@H]1[C@H]2C[C@H]3c4[nH]c5ccccc5c4CCN3C[C@H]2CC[C@@H]1O is listed as ., ., ., ., ., ., -3%&-5%
